UCH37 inh – inhibitors of human UCH37 deubiquitinase, primary screen, biochemical, Ub-AMC cleavage, fluorescence | Ubiquitin carboxyl-terminal hydrolase isozyme L5 (Homo sapiens), Q9Y5K5 | purified proteasome/UCH37 | inhibition, % (test concentration not listed) | hit rate 0.33% among 330,000;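 active = mean of two replicates above 20%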;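 note: 0% = compound-free wells with enzyme and 100% = wells lacking proteasome; stock transfer was 100 nL into about 20 µL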
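assay system = human UCH37 enzyme supplied as purified proteasome complex | amount = proteasome at 0.15 nM in the dispensed enzyme solution | schedule = 30 min compound-proteasome preincubation then 25 min substrate reaction, room temperature | measured by = fluorescence, ex 355 nm, em 460 nm | benchmarks = no-proteasome wells (full inhibition) and compound-free wells (no inhibition)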
B2AR ag – beta2AR agonists driving receptor internalization, primary screen, cell-based, FAP fluorogen, flow cytometry | AID 504454, 2011 | response, % (test concentration not listed) | hit rate 0.43% among 340,000 | Am2.2-beta2AR cells; reference of the scale not given here;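 active = response above a set limit, near 3 SD of response in nonfluorescent compounds, cut at about 42% in these data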;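 note: stock transfer was 100 nL into about 11 µL; a reference agonist was the positive control; negative values mostly stem from fluorescent compounds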
LANA-H2B inh – blockers of LANA interaction with H2A/H2B – biochemical, FP readout, HTS, primary screen. AID 2629, 2010. hit rate 0.6% among 320,000. inhibition, % (test concentration not listed). cell-free LANA-H2A/H2B peptide, fluorescence polarization. Protein LANA1 (Human herpesvirus 8 type P (isolate GK18)), Q9QR71; in the data active = inhibition mostly above about 10%, no sharp cut-off; inactive = mostly below about 6.7%;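 note: stock transfer was 7.5 nL into about 10 µL; 0% = median of vehicle wells and 100% = median of positive control wells; one replicate is shown; the record names a cut of 25% in any replicate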
Target sequence (Q9QR71 whole entry, looked up): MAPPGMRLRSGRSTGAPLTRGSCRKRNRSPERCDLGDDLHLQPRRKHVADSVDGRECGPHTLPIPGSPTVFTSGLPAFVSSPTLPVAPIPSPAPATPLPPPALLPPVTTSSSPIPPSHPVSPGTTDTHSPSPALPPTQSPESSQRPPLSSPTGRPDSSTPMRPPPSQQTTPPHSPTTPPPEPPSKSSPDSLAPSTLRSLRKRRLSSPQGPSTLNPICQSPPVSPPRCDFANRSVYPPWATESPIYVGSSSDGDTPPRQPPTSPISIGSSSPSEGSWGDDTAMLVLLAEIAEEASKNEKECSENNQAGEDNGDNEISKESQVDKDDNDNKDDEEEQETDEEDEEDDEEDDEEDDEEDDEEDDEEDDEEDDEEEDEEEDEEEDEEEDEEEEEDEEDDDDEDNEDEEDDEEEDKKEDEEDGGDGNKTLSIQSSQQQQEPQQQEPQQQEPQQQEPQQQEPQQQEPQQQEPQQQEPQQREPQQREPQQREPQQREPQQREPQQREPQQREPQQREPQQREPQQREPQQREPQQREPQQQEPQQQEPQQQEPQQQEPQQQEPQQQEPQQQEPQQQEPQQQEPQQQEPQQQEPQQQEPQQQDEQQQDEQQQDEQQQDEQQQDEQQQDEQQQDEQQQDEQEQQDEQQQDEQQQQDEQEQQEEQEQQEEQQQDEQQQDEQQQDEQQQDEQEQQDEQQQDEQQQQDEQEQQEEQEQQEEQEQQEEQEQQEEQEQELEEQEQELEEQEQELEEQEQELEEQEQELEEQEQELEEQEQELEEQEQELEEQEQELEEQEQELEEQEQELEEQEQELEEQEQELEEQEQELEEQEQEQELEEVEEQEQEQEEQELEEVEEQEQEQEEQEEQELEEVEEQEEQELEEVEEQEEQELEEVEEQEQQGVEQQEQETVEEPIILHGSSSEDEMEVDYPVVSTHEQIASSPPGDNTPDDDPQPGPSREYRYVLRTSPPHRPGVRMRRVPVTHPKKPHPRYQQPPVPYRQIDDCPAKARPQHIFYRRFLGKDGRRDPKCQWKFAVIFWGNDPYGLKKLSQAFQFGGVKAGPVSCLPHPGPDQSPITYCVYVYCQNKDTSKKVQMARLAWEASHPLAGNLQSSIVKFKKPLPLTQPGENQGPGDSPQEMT
ALR inh – inhibitors of human ALR sulfhydryl oxidase, primary screen, biochemical, H2O2 detection, HRP-luminol luminescence, single point. FAD-linked sulfhydryl oxidase ALR (Homo sapiens), P55789. purified ALR, DTT oxidation. inhibition, % (concentration not given with the values). hit rate 3.8% among 290,000;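 active = mean and each replicate at 75% or more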;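 note: stock transfer was 7.5 nL into about 7.5 µL; 0% = neutral wells and 100% = wells with inactivated enzyme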
E coli growth – E. coli growth inhibition, primary screen, OD600. Escherichia coli growth, 23 h; stronger effect = lower value. OD600 absorbance (no concentration beside the values). hit rate 0.21% among 330,000. AID 1053175, 2014;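 active = OD600 absorbance below the run mean of sample wells minus 3.6 SD, in any replicate, cut at about 0.56 in these data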;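 note: stock transfer was 300 nL into about 60 µL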
FGF22 binding – binders of human FGF22 protein, primary screen, FGF22 synaptogenesis inhibitor project, biophysical, thermal shift, single point. Fibroblast growth factor 22 (Homo sapiens), Q9HCT0. recombinant FGF22 thermal shift, SYPRO orange fluorescence; percent of sucrose octasulfate shift, DMSO zero. calls only at 9.99 µM. hit rate 1.5% among 340,000. AID 651658, 2012;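 active = melting point raised past a set limit in the mean and every replicate; three in four hits are not shown here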
HNF4A DNA FP – change in binding of human HNF4A to DNA, primary screen, biochemical, fluorescence polarization, FITC-DNA; AID 1224865, 2016; Hepatocyte nuclear factor 4-alpha (Homo sapiens), P41235; 1 h; activity change, % at 10 µM; hit rate 0.3% among 360,000; in the data active = activity change above about 30%, passing the limit was not always enough;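 note: controls were the assay level and a saturating level of protein; the project sought stronger binding though the title names inhibitors; some compounds called inactive have numbers as strong as hits; positive values seem to mean higher polarization but the record does not say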
Numbers without * were called inactive; i = inactive; . = no result given. The list is partial; rates above refer to the full screens.

SMILES	UCH37 inh	B2AR ag	LANA-H2B inh	ALR inh	E coli growth	FGF22 binding	HNF4A DNA FP
CC(=O)N1CCC(c2c[nH]c3ccccc23)CC1	4.8	-4	6.7	96*	0.64	i	-1.0
O=C(Oc1ccccc1)c1ccc2nsnc2c1	4.0	4	-4.4	-8	0.66	.	-4.7
Cc1cccc(C(=O)NC2CC3CCCC(C2)N3C(=O)Nc2ccccc2)c1 (stereo unspecified)	5.6	11	1.7	9	0.71	i	-2.9
Cc1ccccc1CNC(=O)COc1ccccc1	0.8	5	-6.1	-4	0.63	i	-0.3
Oc1ccc(C[C@@H]2CNCCN2CCc2cccc3ccccc23)cc1	2.0	36	-1.0	14	.	i	0.4
Cc1cc(Br)ccc1NC(=O)c1cnc(N2CCN(c3ccccn3)CC2)c2ccccc12	-6.1	15	-1.4	-3	0.73	.	-0.5
O=C(NNC(=S)NC(=O)c1ccccc1[N+](=O)[O-])c1ccccc1Cl	4.1	10	-6.7	5	0.64	i	0.1
CC(=O)N(C(C)=O)C1=C(C#N)C2(CCCCC2)Cc2ccccc21	0.6	6	0.3	7	0.73	.	6.2
CCOc1ccccc1NC(=O)NCc1ccc(F)cc1	2.4	2	2.0	1	0.68	i	-3.2
O=C(COc1ccccc1F)NNC(=O)Cn1c(=O)cnc2ccccc21	1.8	1	-1.2	.	0.66	i	-2.7
COC(=O)Cc1c(O)ccn(Cc2ccc(Cl)c(Cl)c2)c1=O	3.0	1	-3.2	.	0.69	i	0.1
Cc1ccc(SCCNC(=O)c2ccccc2F)cc1	0.8	5	-2.7	-3	0.64	.	0.3
CCCn1cnc2scc(-c3ccc(C)cc3)c2c1=O	5.7	0	14	-1	0.68	.	-3.8
Cc1ccsc1/C=N/NC(=O)CC(=O)NCC(C)C	.	-3	-2.5	0	.	i	0.2
N#CC1(NC(=O)CSc2nncn2-c2ccccc2F)CCCC1	.	-4	2.9	-1	.	i	-3.5
CSCCC(NC(=O)c1ccccc1)C(=O)Nc1ccc(C)cc1 (stereo unspecified)	3.4	1	-3.5	-3	0.71	i	0.7
COc1cccc(-n2ccnc2SCC(=O)N2CCc3ccccc32)c1	1.3	2	4.4	-27	0.7	.	-0.6
N#C/C(=C\c1cn(CC(=O)O)c2ccccc12)C(=O)NCc1ccccc1	3.8	3	-1.0	-8	0.69	i	2.8
Cc1ccccc1-n1c(=O)cc(N2CCCCCC2)[nH]c1=O	3.6	-6	-3.4	36	0.76	i	-0.5
Cc1cccc(C(=O)NC2CCN(CC(=O)NCc3cccs3)CC2)c1	3.7	-2	1.7	2	0.66	i	1.2
CCCc1nc2sc3c(=O)[nH]cnc3c2c2c1CCCC2	-11	.	-0.2	-2	0.73	i	.
O=C(COc1ccc2ccc(=O)oc2c1)NC1CCCCC1	-54	-6	1.9	1	0.62	i	1.2
CC[C@]1(C(=O)OC)[C@H]2C(=O)N(Cc3ccccc3)C(=O)[C@H]2[C@H]2CN=C(SCc3ccc(C#N)cc3)N21	0.7	1	.	.	0.7	i	1.2
CCc1nc(SCC(=O)Nc2cc(C)ccc2OC)c2c(C)c(C)sc2n1	0.7	15	-1.6	.	0.72	.	1.6

A draw from above in order of count of non-hydrogen atoms, high to low.
SMILES	UCH37 inh	B2AR ag	LANA-H2B inh	ALR inh	E coli growth	FGF22 binding	HNF4A DNA FP
O=C(NNC(=S)NC(=O)c1ccccc1[N+](=O)[O-])c1ccccc1Cl	4.1	10	-6.7	5	0.64	i	0.1
CC(=O)N(C(C)=O)C1=C(C#N)C2(CCCCC2)Cc2ccccc21	0.6	6	0.3	7	0.73	.	6.2
O=C(COc1ccc2ccc(=O)oc2c1)NC1CCCCC1	-54	-6	1.9	1	0.62	i	1.2

A run of entries of the results above, for reference:
SMILES	UCH37 inh	B2AR ag	LANA-H2B inh	ALR inh	E coli growth	FGF22 binding	HNF4A DNA FP
Cc1cccc(C(=O)NC2CCN(CC(=O)NCc3cccs3)CC2)c1	3.7	-2	1.7	2	0.66	i	1.2
CCCc1nc2sc3c(=O)[nH]cnc3c2c2c1CCCC2	-11	.	-0.2	-2	0.73	i	.
O=C(COc1ccc2ccc(=O)oc2c1)NC1CCCCC1	-54	-6	1.9	1	0.62	i	1.2
CC[C@]1(C(=O)OC)[C@H]2C(=O)N(Cc3ccccc3)C(=O)[C@H]2[C@H]2CN=C(SCc3ccc(C#N)cc3)N21	0.7	1	.	.	0.7	i	1.2
CCc1nc(SCC(=O)Nc2cc(C)ccc2OC)c2c(C)c(C)sc2n1	0.7	15	-1.6	.	0.72	.	1.6

(list continues)
SMILES	UCH37 inh	B2AR ag	LANA-H2B inh	ALR inh	E coli growth	FGF22 binding	HNF4A DNA FP
O=C(Nc1cc(Br)ccc1O)c1cc(-c2ccc3c(c2)OCO3)on1	.	0	-6.7	.	.	i	11
CC(=O)Nc1cc(C(=O)N(C)Cc2ccco2)ccc1Sc1ccc(C)cc1	3.2	19	4.5	-13	0.73	.	0.6
CC(Nc1n[nH]c(=S)[nH]c1=O)C(=O)OCc1ccccc1 (stereo unspecified)	6.6	1	0.5	4	0.66	.	-1.2
O=C(Nc1ccc(-c2ccc3nncn3n2)cc1)c1ccc(Br)o1	.	-5	4.0	-9	.	i	-6.0
Cc1ccc2c(c1)c(C)cc(=O)n2CCC(=O)O	-1.9	5	-1.4	-5	0.68	.	-7.8
CCCC(=O)N1c2ccccc2[C@@H](N(C(C)=O)c2ccccc2)C[C@H]1C	4.5	9	0.3	.	0.68	.	-2.9
Cc1c(C(=O)O)cccc1[N+](=O)[O-]	1.3	15	i	-12	0.65	i	-0.8
Cc1ccc(-c2csc3nc(C)n(-n4c(C)ccc4C)c(=O)c23)o1	-4.2	8	1.7	6	0.74	.	-1.9
Cc1cc2oc(C(=O)Nc3ccc(S(=O)(=O)Nc4onc(C)c4C)cc3)cc(=O)c2cc1Cl	5.3	15	3.6	55	0.69	i	1.3
CC(C)(C)NC(=O)C(c1ccccc1)N(C(=O)C1CSC(=O)C1)c1ccccc1 (stereo unspecified)	-0.2	8	-1.2	-5	0.68	.	-0.3
Cc1csc(=O)n1CCC(=O)OCc1nnc(-c2ccc([N+](=O)[O-])cc2)o1	2.1	2	1.3	-44	0.64	i	-0.3
CCCn1c(N)c(N(CCOC)C(=O)c2cc3ccccc3cc2OC)c(=O)[nH]c1=O	0.8	-6	-8.0	-13	0.67	i	-3.3
CSc1cccc(NC(=S)N(CCCN2CCCC2)Cc2cccs2)c1	2.2	5	-3.5	1	0.68	i	-0.1
Cc1ccc(Cc2nc(-c3ccncc3)no2)cc1	0.0	-7	-5.2	.	0.7	i	-2.5
O=C(Nc1ccccc1)Nc1nc(-c2ccc(F)cc2)cs1	1.4	2	1.9	.	0.69	i	-3.4
CCc1nc2sc3c(c2c(=O)n1NC(=O)CCl)CCCC3	1.3	6	0.2	57	0.69	.	4.8
O=C(Nc1cccnc1)c1cccc(S(=O)(=O)Nc2ccccc2F)c1	-0.5	10	.	.	0.72	i	2.2
S=C(NCc1ccco1)Nc1ccc(Br)cc1Cl	-0.6	-1	-2.5	-2	0.6	i	7.4
CCSc1nc(N)c(C#N)c(-c2ccccc2Cl)c1C#N	-5.0	8	-2.5	-1	0.75	.	-1.4
CC(=O)N(c1ccccc1C)C1CCCC1	0.9	-6	4.1	-5	0.7	i	-1.3
CCCNC(=O)C/C(C)=N/NC(=O)COc1ccc(C)cc1Br	.	-10	0.1	5	.	i	-0.5
O=C(COC(=O)c1cccnc1Cl)Nc1ncc(Cl)cc1Cl	0.3	1	0.7	-6	0.71	.	-3.2
CCOC(=O)c1ccccc1NC(=S)N1CC(C)CC(C)C1 (stereo unspecified)	5.3	1	-0.5	22	0.72	i	0.8
CCCN(CCC)C(=O)c1ccc2c(c1)OCO2	-0.5	1	2.8	.	0.75	.	-1.0
O=[N+]([O-])c1cc(C(F)(F)F)ccc1NCC1CCCO1 (stereo unspecified)	4.5	-11	-3.5	-4	0.66	i	4.5
O=C(Nc1ccccc1)O/N=C1/CCCc2occc21	.	3	-1.5	0	.	i	9.0
Cc1ccc(OCCCC(=O)N2CCN(S(=O)(=O)c3cccc(F)c3)CC2)cc1	4.0	9	-0.3	1	0.68	i	3.2
Cc1ccc(N(C)C(=O)c2cc(S(=O)(=O)N3CCCCC3)c[nH]2)cc1	5.2	4	-5.7	3	0.7	i	4.9
Cn1nc(-c2ccccc2)c(-c2nc(-c3ccccc3Cl)no2)c1Cl	0.7	-1	-20	-14	0.74	.	-4.9
O=C(O)/C=C/C(=O)N1CCN(C(c2ccccc2)c2ccccc2)CC1	0.5	-5	11	0	0.68	i	0.0
CCc1ccc(OCC(=O)Nc2cccc3c2CCCC3)cc1	-0.2	-3	0.7	-8	0.72	i	5.3
COc1ccccc1NC(=O)CN(C)S(=O)(=O)c1cc(C)ccc1OC	1.7	-7	.	.	0.68	.	-0.3
COc1ccc(C2=NOC(C(=O)NCc3ccccc3)C2)cc1 (stereo unspecified)	1.3	33	11	-2	0.69	i	-0.7
COc1ccc(-c2cc(C3CCN(c4cc(Cl)nc(N)n4)CC3)[nH]n2)cc1	0.6	9	-0.1	12	0.67	.	-1.9
CSc1ccc(C#N)cc1NC(=O)c1ccccc1	4.4	7	2.7	-14	0.64	i	-0.8
CC(=O)N1c2ccc(S(=O)(=O)N3CCCC(C(=O)NCc4ccccc4)C3)cc2CC1C (stereo unspecified)	3.2	11	0.3	2	0.76	i	3.0
COc1cccc(C2C(C(N)=O)=C(C)Nc3nc(CCCO)nn32)c1 (stereo unspecified)	2.3	-6	1.5	5	0.71	i	1.3
CCOC(=O)c1c[nH]c2c(Cl)ccc(Cl)c2c1=O	9.0	2	1.3	0	0.67	.	1.3
O=S(=O)(NC1c2cccc3cccc(c23)C1N1CCNCC1)c1ccccc1 (stereo unspecified)	5.4	21	-2.8	-17	0.74	.	-1.6
CCN(CC)S(=O)(=O)c1ccc(Nc2cc(C)nc3ncnn23)cc1	5.7	-3	1.1	-6	0.73	i	-9.6
CC1CCC(CN2C(Nc3ccccc3)=NC[C@@H]2C)CC1 (stereo partly specified)	1.1	-3	-0.3	-3	.	i	4.3
O=[N+]([O-])c1cccc(OCCN2CCC(Cc3ccccc3)CC2)c1	3.9	5	0.9	-8	0.67	i	-2.7
COCc1c(CCl)cnc(C)c1O	-4.1	12	-4.8	-41	0.64	i	0.7
CC(CCc1ccccc1)NC(=O)COC(=O)C12CC3CC(CC(Br)(C3)C1)C2 (stereo unspecified)	4.2	8	.	.	0.62	.	0.3
Cc1[nH]n(-c2ccc(Cl)cc2)c(=O)c1N=Nc1cccnc1	6.3	-7	0.1	-1	0.72	i	2.7
Cc1cc(C)n(-c2ccc(NC(=O)C3CCCCN3C(=O)c3ccoc3)cc2)n1 (stereo unspecified)	0.0	1	55*	-4	0.72	i	0.6
COc1ccccc1N(CC(=O)NCC(C)C)S(=O)(=O)c1cccs1	3.2	-2	3.9	-11	0.67	.	0.6
Cc1cccc(NC(=O)NCC(c2cccnc2)N2CCOCC2)c1 (stereo unspecified)	-1.9	0	-1.8	3	0.69	.	-3.3
O=C(c1ccc(NS(=O)(=O)c2ccc3[nH]c(=O)[nH]c3c2)cc1)N1CCN(c2ccccc2O)CC1	2.8	-9	1.8	98*	0.63	i	0.7
CC(C)CC(=O)Nc1nc(=S)ss1	7.0	1	3.8	26	0.65	.	-1.3
O=[N+]([O-])c1ccc(CS(=O)(=O)N2CCN(c3ccccc3)CC2)cc1	3.7	0	-8.8	.	0.71	i	3.7
CCC(C)NC(=O)c1cn(CC)c2cc(N3CCN(C(=O)c4ccco4)CC3)c(F)cc2c1=O (stereo unspecified)	-74	0	-0.2	-5	0.54	i	2.0

Source: PubChem BioAssay (several laboratories)
